YjeE inh = inhibitors of E. coli YjeE (TsaE) | P0AF67 | purified YjeE, fluorescence polarisation of a bound ADP probe | Potency, µM | 71,000 compounds, 0.05% hits | AID 605; active = well fitted falling curve; inconclusive = weaker or top-dose-only fall, or a rising curve; inactive = flat or poorly fitted curve;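 note: top concentration of the series not given in the record; excess ADP was the control for the full effect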
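Fluorescence polarization of a BODIPY Texas Red–ADP probe (2 uM) bound to purified YjeE (10 uM) was read after 15 min room-temperature incubation with compounds. Loss of polarization marks inhibitors; ADP serves as titrated control.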
Bst PK mod = pyruvate kinase (B. stearothermophilus) modulation; partly purified Bacillus stearothermophilus pyruvate kinase, luminescence ATP production; ribose 5-phosphate activator present at AC10; Potency, µM; 51,000 compounds, 1.2% hits; AID 361; in the data active means potency below about 11 µM; inconclusive means mostly about 12 µM to 25 µM; inactive means weaker than that;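 the screen sought inhibitors and activators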;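 note: potency is the fitted concentration of half-maximal effect; scaled between full activation by ribose 5 phosphate and full inhibition by luteolin; about four in five hits inhibit and the cells do not say which; series up to 57 µM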
* = called active by the depositor; i = inactive; ? = inconclusive; / = not tested or not shown; & = joins results of further samples.

SMILES | YjeE inh | Bst PK mod
CC(C)COc1ccc(C(=O)OCCN2CCOCC2)c(O)c1 | / | >26
Cc1ccnn2c(-c3ccccc3)c3c(=O)n(C)c(=O)n(C)c3c12 | i | >57
CCCN(CCC)C(=O)Cn1c(=O)n(CCCCC(=O)NCc2ccco2)c(=O)c2ccccc21 | i | >57
Cc1noc(C)c1C(=O)OC(C(=O)NC1CCCC1)c1ccc(F)cc1 (configuration not stated) | i | >57
CCOC(=O)CCCNC(=O)CN1C(=O)NC(CCc2ccccc2)C1=O (configuration not stated) | i | >57
CCOc1ccc(NC(=O)C(C)Sc2nnnn2C)cc1 (configuration not stated) | i | >57
CCOC(=O)Cc1cnc(NC(=O)NC(C(=O)OCC)(c2ccccc2)C(F)(F)F)s1 (configuration not stated) | i | >57
Cn1c(C(=O)NC2CC2)cc2c(=O)n(C)c3ccccc3c21 | i | /
O=C(Cc1cccs1)N1CCN(c2ccccn2)CC1 | i | /
COC(=O)CN(c1ccc(C)c(Cl)c1)S(C)(=O)=O | i | /
CC(C)(C)C1CCc2onc(C(=O)Nc3ccc(F)cc3F)c2C1 (configuration not stated) | i | >57
O=C(O)c1cccc2c1C(=O)N(C1CCCCC1)C2 | i | /
O=C(c1cnn2ccccc12)N1CCc2ccccc21 | i | /
CCOC(=O)CSc1nnc(C2CCCCC2)n1C | i | >57
O=C(CSc1n[nH]c(-c2cccnc2)n1)Nc1ccnc2ccccc12 | i | >57
CN(C)c1ccc(NC(=O)CN2CCN(CC(=O)Nc3ccc(F)cc3)CC2)cc1 | i | >57
CC(=O)N1CC=C2C(C#N)=C(N)C(C#N)(C#N)C(C)C2C1 (configuration not stated) | i | >57
CC(C)C(=O)Nc1cccc(-c2cn3ccsc3n2)c1 | i | /
CN(C)c1ccc(C(c2nnnn2C(C)(C)C)N2CCN(C(=O)c3ccco3)CC2)cc1 (configuration not stated) | i | >57
O=C(O)C/C(=C\c1ccco1)C(=O)O | i | /
COC(=O)Cn1cnc2sc(C)c(S(=O)(=O)N3CCN(c4ccccc4OC)CC3)c2c1=O | i | >57
COc1ccc(CCN(Cc2cc3cccc(C)c3[nH]c2=O)C(=O)N2CCCC2)cc1OC | i | >57
COc1ccccc1-c1nnc(SCC(=O)Nc2ccc(Cl)cc2Cl)o1 | i | ?
CCOC(=O)NCc1ccc2c(c1)cc(C)n2C | i | >57

Record cards (already shown):
COC(=O)Cn1cnc2sc(C)c(S(=O)(=O)N3CCN(c4ccccc4OC)CC3)c2c1=O is listed as YjeE inh: i; Bst PK mod: >57
CCOC(=O)NCc1ccc2c(c1)cc(C)n2C is listed as YjeE inh: i; Bst PK mod: >57

(continued)
SMILES | YjeE inh | Bst PK mod
COc1ccc(OC)c(NS(=O)(=O)c2cccs2)c1 | i | >57
Cc1cc(C)n(/N=C/c2cccc(O)c2)c(=O)c1C(N)=O | i | /
CCOC(=O)N1CCN(C(=O)C(CC(C)C)NC(=O)C2CCCCC2)CC1 (configuration not stated) | i | >57
COc1ccc2oc(=O)c(C(=O)N3CCN(c4ccccc4F)CC3)cc2c1 | i | >57
Cc1cc(=O)oc2n[nH]c(-c3ccccc3)c12 | i | >57
C/C(=C1/SC(N2CC(C)OC(C)C2)=NC1=O)c1ccccc1 (configuration not stated) | i | >57
Nc1ccc(CCNc2ncnc3c2ncn3[C@@H]2O[C@@H](CO)[C@H](O)[C@@H]2O)cc1 | i | /
COc1ccccc1-c1cc(Nc2ccc(F)cc2)ncn1 | i | /
Cn1c(=O)c2c(ncn2CC(=O)N2CCN(c3cccc(Cl)c3)CC2)n(C)c1=O | i | >57
O=C(COc1ccccc1)Nc1cccc2nsnc12 | i | >57
COc1ccc(-c2cc3ccccc3oc2=O)cc1NC(=O)c1ccc(Br)o1 | ? | >57
Cc1cccc(-c2c3c(=O)n(C)c(=O)n(C)c3cn2CCO)c1 | i | >57
Cc1ccc(S(=O)(=O)Cn2nnnc2CN2CCN(C(=O)c3ccco3)CC2)cc1 | i | >57
COc1ccc(-n2c(SCC(=O)N3CCCCC3)nnc2-c2cccnc2)cc1 | i | >57
COC(=O)c1ccc2c(=O)n(CCCCCC(=O)NCc3ccccn3)c(=O)[nH]c2c1 | i | >57
Cc1ccc(Cn2c(SCC(=O)NCc3ccco3)nc3ccsc3c2=O)cc1 | i | >57
COC(=O)CSc1nnc(CNC(=O)c2ccccc2OC)n1-c1ccc(OC)cc1 | i | >57
CCCCCCC(c1c(C)n(C)n(-c2ccccc2)c1=O)c1c(C)n(C)n(-c2ccccc2)c1=O | i | >57
CCN(CCCNC(=O)C1CCCN(S(=O)(=O)c2cnc[nH]2)C1)c1ccccc1 (configuration not stated) | i | /
CCN(CC)CCCC(C)n1c(-c2ccccc2)nc2c(NC3CCCCC3)nc(C)nc21 (configuration not stated) | i | /
CCOC(=O)Nc1ccc2c(c1)N(C(=O)N1CCN(C)CC1)c1ccccc1S2 | i | >57
Cc1cc(C(C)(C)C)c(O)c(C(C)(C)C)c1 | i | /
Cc1cc(-n2c(C)cc(C(=O)CSc3ncnc4ccccc34)c2C)no1 | i | >57
COc1cccc(C2C(C(N)=O)=C(C)Nc3nc(-c4ccccc4Cl)nn32)c1 (configuration not stated) | i | /
COc1ccc(-c2nc3cnc(OC)nc3n(Cc3ccc(F)cc3)c2=O)cc1 | i | /
CC(CCc1ccccc1)NC(=O)CSc1nccc(=O)[nH]1 (configuration not stated) | i | >57
CC(C)(C)c1ccc2c(c1)OCC(C(=O)O)O2 (configuration not stated) | i | >57
CCn1nnnc1SCC(=O)Nc1cccc(NC(C)=O)c1 | i | >57
CCOC(=O)C1=C(C)Nc2ncnn2C1c1ccccc1F (configuration not stated) | i | >57
CS(=O)(=O)c1ccc(Cl)c(NC(=O)COC(=O)CNC(=O)c2ccc(Br)o2)c1 | i | >57
Cc1cnn(-c2ccc3nnc(-c4ccc(Br)cc4)n3n2)c1 | i | /
COc1ccc(NC(=O)C(CC(=O)O)Cc2ccccc2)cc1 (configuration not stated) | i | /
COc1ccc(OC)c(C2C(C(C)=O)=C(O)C(=O)N2Cc2cccnc2)c1 (configuration not stated) | i | >57
Cc1ccc(CS(=O)(=O)CCC(=O)N2CCOCC2)cc1 | i | >57
COc1ccc(S(=O)(=O)N2CCN(c3ccccc3OC)CC2)cc1OC | i | >57
CC(C)(C)Nc1nc(SCc2ccccc2)nc(N2CCOCC2)n1 | i | >57
CCCOC(=O)c1ccc(OC(=O)c2ccco2)cc1 | i | /
COC(=O)c1[nH]c2ccc(C)cc2c1NC(=O)CN1CCN(c2ccc(F)cc2)CC1 | i | >57
N#CC1=C(N)OC2=C(C(=O)CCC2)C12CCC1(CC2)OCCO1 | i | >57
COc1ccccc1N1CC(C(=O)OCC(=O)c2ccc(F)cc2)CC1=O (configuration not stated) | i | >57
CCOC(=O)N1CCN(S(=O)(=O)c2ccc(C(=O)Nc3sc4c(c3C#N)CCC4)cc2)CC1 | i | >57
COc1ccc(CNC(=O)CCn2c(=O)oc3ccccc32)cc1 | i | >57
CCOP(=O)(c1ccc(N(C)C)cc1)C(O)c1ccccc1OC (configuration not stated) | i | >57
O=C(O)CCCNS(=O)(=O)c1cccs1 | i | >57
c1ccc2[nH]c(-c3cscn3)nc2c1 | i | >26&>57
CCOc1ccc2[nH]c(=O)c(CN(Cc3nnnn3Cc3ccccc3)CC3CCCO3)cc2c1 (configuration not stated) | i | >57
COc1ccc2nc(C)cc(C(=O)O)c2c1 | i | >57
CCC(c1nnc(SCC(=O)NCC2CCCO2)n1Cc1ccccc1)N(C)C (configuration not stated) | i | >57

Part of the list above in another layout.
YjeE inh,Bst PK mod,SMILES
i,>57,COc1ccc(CNC(=O)CCn2c(=O)oc3ccccc32)cc1
i,>57,CCOP(=O)(c1ccc(N(C)C)cc1)C(O)c1ccccc1OC (configuration not stated)

The listing picks up with the 2 entries that preceded the break.
SMILES | YjeE inh | Bst PK mod
COc1ccc2nc(C)cc(C(=O)O)c2c1 | i | >57
CCC(c1nnc(SCC(=O)NCC2CCCO2)n1Cc1ccccc1)N(C)C (configuration not stated) | i | >57
c1ccc(COc2ccc(OCCn3cncn3)cc2)cc1 | i | >57
Cc1cccc(/N=C/c2c(O)c3ccccc3oc2=O)n1 | i | >57
CC(n1cnnn1)C12CC3CC(CC(C3)C1)C2 (configuration not stated) | i | >57
COC(=O)[C@H]1[C@H]2C[C@@H]3c4[nH]c5cc(OC)ccc5c4CCN3C[C@H]2C[C@@H](OC(=O)c2cc(OC)c(OC)c(OC)c2)[C@@H]1OC | i | /
O=C(Cn1nnc(-c2ccccc2F)n1)Nc1ccc2c(c1)OCO2 | i | >57
Cc1nnc(SCC(=O)NCc2ccco2)[nH]c1=O | i | >57
CCN(C(=O)CCc1nc(-c2ccccc2F)no1)c1cc(OC)ccc1OC | i | >57
CCN(CC)CCCN1C(=O)C(=O)/C(=C(/O)c2ccc(OC)c(Cl)c2)C1c1ccco1 (configuration not stated) | i | >57
C[C@@](N)(C(=O)O)c1ccc(C(=O)O)cc1 | i | /
CCOC(=O)N1CCN(C(=O)Nc2ccc3nc(C)sc3c2)CC1 | i | >57
CCOC(=O)N1CCN(c2ccc(C(=O)CC)cc2F)CC1 | i | /
CC(C)NC(=O)CCNS(=O)(=O)c1ccc(Br)cc1 | i | >57
CCOc1ccc(OCc2ccc(C(=O)Nc3cccc(C)n3)o2)cc1 | i | >57
COc1ccccc1Nc1nc2c(s1)CCC2 | i | >57
CCc1cc2c3c(c(=O)oc2cc1O)CCCC3 | i | >57
COc1ccc(-c2ccc(-c3noc(-c4ccncc4)n3)c(OC)n2)cc1 | i | >57
COc1ccc(C2C(C#N)=C(N)OC3=C2C(=O)CCC3)c(OC)c1OC (configuration not stated) | i | >57
CCCCOc1ccc(C(=O)N2CCCCCC2)cc1 | i | >57
CSc1ccc(N2C(=O)NC3(CCCCC3)C2=O)cc1 | i | >57
O=C(Nc1ccccc1-c1ccccc1)NC1CCN(CC(=O)N2CCOCC2)CC1 | i | >57
Cc1cc(C(=O)CSc2nnc(-c3ccc(OC(F)F)cc3)o2)c(C)n1Cc1cccs1 | i | >57
O=C(O)Cn1ccnc1[N+](=O)[O-] | i | /
COc1ccccc1-c1nnn(CC#N)n1 | i | >57
Nc1nc2ccccc2n1CCN1CCCC1 | i | >57
CN1CCN(c2ncc3nc(-c4cccs4)c(=O)n(Cc4cccs4)c3n2)CC1 | i | /
CN1C(=O)C(CC(=O)Nc2ccc3c(c2)Cc2ccccc2-3)N(C)C1=O (configuration not stated) | i | /
CCN(C(=O)Cn1c(=O)n2nc(CCn3nc(C)cc3C)nc2c2ccccc21)c1cccc(C)c1 | i | >57
O=C(COC(=O)c1ccco1)Nc1ccccc1 | i | >57
CCC(=O)Nc1c(-c2cccs2)c(=O)c2ccccc2n1C | i | >57
COc1ccccc1NC(=O)CSc1nnnn1-c1ccc2c(c1)OCO2 | i | >57
CCNc1ncc2nc(-c3cccc(C#N)c3)c(=O)n(C)c2n1 | i | /
COc1ccc(C(=O)COC(=O)Cn2nnc3ccccc32)cc1Br | i | >57
COC(=O)Nc1nnc(CC(=O)Nc2ccccc2C)s1 | i | >57
O=S(=O)(O)c1ccc(O)c2ncccc12.O=S(=O)(O)c1ccc(O)c2ncccc12.[Zn] | i | /
O=C(O)Cc1ccc(C(=O)c2cccs2)s1 | i | >57
CC1CN(Cc2nc3c(c(=O)n(C)c(=O)n3C)n2CC(=O)c2ccccc2)CC(C)O1 (configuration not stated) | i | >57

Retrieved by structure from above:
SMILES | YjeE inh | Bst PK mod
COc1ccc(C(=O)COC(=O)Cn2nnc3ccccc32)cc1Br | i | >57
COC(=O)Nc1nnc(CC(=O)Nc2ccccc2C)s1 | i | >57
O=S(=O)(O)c1ccc(O)c2ncccc12.O=S(=O)(O)c1ccc(O)c2ncccc12.[Zn] | i | /
CCC(=O)Nc1c(-c2cccs2)c(=O)c2ccccc2n1C | i | >57
O=C(O)Cc1ccc(C(=O)c2cccs2)s1 | i | >57
COc1ccccc1NC(=O)CSc1nnnn1-c1ccc2c(c1)OCO2 | i | >57
CN1C(=O)C(CC(=O)Nc2ccc3c(c2)Cc2ccccc2-3)N(C)C1=O (configuration not stated) | i | /

(cont.)
SMILES | YjeE inh | Bst PK mod
COC(=O)Cn1c(=O)sc2ccccc21 | i | /
O=C(NCc1ccco1)C1CCCN(S(=O)(=O)c2cccc3nsnc23)C1 (configuration not stated) | i | >57
COc1ccc(-c2nnn(CC(=O)NC3CCCc4ccccc43)n2)cc1OC (configuration not stated) | i | >57
CCC(C)(C)n1nnnc1C(c1cccnc1)N1CCCc2ccccc21 (configuration not stated) | i | >57
CCN1C(=O)c2ccccc2S(=O)c2ccc(C(=O)NC3CC3)cc21 (configuration not stated) | i | /
O=C(NC1CC1)c1ccc2c(c1)ncn2C1CCCC1 | i | >57
COc1cccc(C(O)CC(N)=O)c1 (configuration not stated) | i | >57
CCCCSc1nnc(-c2ccc(NC(=O)CC)cc2)n1C | i | >57
CCn1cc(C(=O)NCC2CCCO2)c(=O)c2cc(S(=O)(=O)N3CCCCC3)ccc21 (configuration not stated) | i | >57
Cc1noc(C)c1CSc1ncnc2sc(C)c(C)c12 | i | >57
COc1ccc(-c2cc(-c3cccs3)c(C#N)c(SCC(=O)NCc3ccco3)n2)cc1 | i | >57
O=C(Nc1ccccc1)Nc1nncs1 | i | >57
CCN1CCN(C(c2ccc(F)cc2)c2nnnn2Cc2cccs2)CC1 (configuration not stated) | i | >57

The list is partial (hit frequency here may not be typical).
